MenB inh: blocks the Mycobacterium tuberculosis MenB enzyme. P9WNP5. MenB enzyme assay, absorbance read-out; some hits fall short of the stated cut. inhibition, %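 (about 12 µg/mL by stock and volumes)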. actives 0.43% (n = 100,000);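 active = mean of two replicates above 30%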;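 note: 0% = no compound and 100% = wells with inactive enzyme; the first replicate is given; strong numbers were not always called active; inactives centre near -10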
Target sequence (P9WNP5 whole entry, looked up): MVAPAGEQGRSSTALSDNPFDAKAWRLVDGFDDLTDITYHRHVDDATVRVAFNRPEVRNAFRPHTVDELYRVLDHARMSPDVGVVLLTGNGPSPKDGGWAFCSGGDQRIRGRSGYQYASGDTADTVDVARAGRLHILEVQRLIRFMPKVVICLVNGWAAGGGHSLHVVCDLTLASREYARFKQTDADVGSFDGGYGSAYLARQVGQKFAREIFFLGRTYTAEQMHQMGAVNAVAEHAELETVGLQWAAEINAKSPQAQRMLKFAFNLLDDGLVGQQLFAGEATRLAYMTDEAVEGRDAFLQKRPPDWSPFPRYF
MbtI inh: MbtI salicylate synthase inhibition; P9WFX0; purified MbtI enzyme, fluorescence intensity read-out; inhibition, %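 (about 17 µg/mL by stock and volumes)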; actives 0.89% (n = 100,000);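 active = above 50% in both replicates, above 80% if mildly self-fluorescent; inactive = the rest, strongly fluorescent compounds included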;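 note: 0% = mean of negative and 100% = mean of positive controls; one replicate is shown; some compounds called inactive have numbers as strong as hits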
Target sequence (P9WFX0 whole entry, looked up): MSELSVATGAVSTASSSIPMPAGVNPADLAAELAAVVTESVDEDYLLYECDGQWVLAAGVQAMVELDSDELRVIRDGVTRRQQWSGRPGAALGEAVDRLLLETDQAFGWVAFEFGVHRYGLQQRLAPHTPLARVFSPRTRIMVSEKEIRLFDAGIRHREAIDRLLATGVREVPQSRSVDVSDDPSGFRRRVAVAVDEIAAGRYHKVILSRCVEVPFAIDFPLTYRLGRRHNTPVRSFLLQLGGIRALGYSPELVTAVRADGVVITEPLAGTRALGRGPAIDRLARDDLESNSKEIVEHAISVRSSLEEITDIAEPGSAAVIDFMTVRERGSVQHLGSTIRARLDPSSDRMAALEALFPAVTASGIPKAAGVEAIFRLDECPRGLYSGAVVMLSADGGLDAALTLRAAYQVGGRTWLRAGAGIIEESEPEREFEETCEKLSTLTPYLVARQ
PV pol inh: inhibitors of poliovirus RNA polymerase binding and polymerization; P03300; poliovirus polymerase elongation, fluorescence polarization; hits give low values; % elongation, % (compound at 16.7 µg/mL); actives 0.66% (n = 150,000); in the data active = % elongation below about 90%; note: some results filed as inactive read as strong as hits
PV pol inh intensity: also measured in PV pol inh; calls as there; % elongation; measured here: total intensity read-out; formula for this scale not given here;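 total fluorescence in place of polarization; lower means less elongation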
Active calls of the source: *; i = inactive; / = not tested or not shown; & = joins results of further samples. Compounds as they come; any-hit rate near 1.8%.

Preview:
SMILES	MenB inh	MbtI inh	PV pol inh	PV pol inh intensity
CC(C)Cc1nnc(NS(C)(=O)=O)s1	-31	95*	102	99
CN(C)C(=O)CSc1nc2ccccc2c(=O)n1-c1ccccc1	-16	1	102	102
O=C1COc2ccccc2N1Cc1c(F)cccc1Cl	-44	-6	105	103
Cc1csc(=O)n1CCOC(=O)c1ccc(Br)cc1	-1	-6	99	105
COc1cccc2c1oc(=O)c1c(NC(C)=O)nc3c(c12)CCCCC3	-138	15	104	105
CC1CCN(c2ccc3nnc(CCC(=O)O)n3n2)CC1	-15	3	100	102
Cn1c(SCC(=O)Nc2ccc3c(c2)OCCO3)nnc1C(F)(F)F	-27	-5	105	111
CC1CC(C)CN(CC(O)COCc2ccccc2F)C1 (configuration not stated)	/	-3	104	108
Cc1c(C(=O)NCc2ccccc2)oc2ccccc12	/	3	106	99
O=c1cc(Nc2cccc(Br)c2)[nH]c(=O)[nH]1	-25	-5	102	101
CCc1ccc(NC(=O)CCC(=O)Nc2ccc3nc(N4CCCCC4)cc(C)c3c2)cc1	-6	109	99	101
S=c1[nH]nc(Cn2cnc3ccccc32)n1-c1ccccc1Cl	1	-6	99	95
O=C(NCCc1ccsc1)c1cc2c(s1)-c1ccccc1OC2	-31	101	100	105
Cc1cc(C)n(-c2nc(C)nc3sc4c(c23)CCC4)n1	/	-51	105	108
N#C/C=C(\Sc1nc2ccccc2o1)c1ccccc1	/	29	103	103
Cc1ccc(-c2cc(Cc3ccc(N(C)C)cc3)c(=O)[nH]n2)cc1	6	6	104	96
Cn1c(O)c(N=N)c2ccccc21	-46	18	103	94
Cc1ccc2nc(N=C(N)N)nc(C)c2c1	8	26	101	100
CCn1c(SCC(=O)NCCc2ccccc2)nnc1-c1c[nH]c2ccccc12	-14	5	104	109
CCOC(=O)c1cccc(NS(=O)(=O)c2ccc3c(c2)CCCN3C(C)=O)c1	-19	-4	102	103
CN(C)c1ccc(/C=C2\C(=O)Nc3ccccc32)cc1	-4	7	99&104	102&99
Cc1cc2[nH]c(=O)c3ccccc3n2n1	-16	-30	100	104
O=C1OCc2c1[nH]c(=O)[nH]c2=O	4	89	101	101
C/C(N)=C(/C#N)C(=O)CSc1nc2ccccc2c(=O)n1Cc1ccc(C)cc1	-37	0	108	114
CC(C)c1ccc(/C=N/n2nnnc2Nc2ccccc2)cc1	-73	5	101	99

All compounds of this part, previewed entries included:
SMILES	MenB inh	MbtI inh	PV pol inh	PV pol inh intensity
CC(C)Cc1nnc(NS(C)(=O)=O)s1	-31	95*	102	99
CN(C)C(=O)CSc1nc2ccccc2c(=O)n1-c1ccccc1	-16	1	102	102
O=C1COc2ccccc2N1Cc1c(F)cccc1Cl	-44	-6	105	103
Cc1csc(=O)n1CCOC(=O)c1ccc(Br)cc1	-1	-6	99	105
COc1cccc2c1oc(=O)c1c(NC(C)=O)nc3c(c12)CCCCC3	-138	15	104	105
CC1CCN(c2ccc3nnc(CCC(=O)O)n3n2)CC1	-15	3	100	102
Cn1c(SCC(=O)Nc2ccc3c(c2)OCCO3)nnc1C(F)(F)F	-27	-5	105	111
CC1CC(C)CN(CC(O)COCc2ccccc2F)C1 (configuration not stated)	/	-3	104	108
Cc1c(C(=O)NCc2ccccc2)oc2ccccc12	/	3	106	99
O=c1cc(Nc2cccc(Br)c2)[nH]c(=O)[nH]1	-25	-5	102	101
CCc1ccc(NC(=O)CCC(=O)Nc2ccc3nc(N4CCCCC4)cc(C)c3c2)cc1	-6	109	99	101
S=c1[nH]nc(Cn2cnc3ccccc32)n1-c1ccccc1Cl	1	-6	99	95
O=C(NCCc1ccsc1)c1cc2c(s1)-c1ccccc1OC2	-31	101	100	105
Cc1cc(C)n(-c2nc(C)nc3sc4c(c23)CCC4)n1	/	-51	105	108
N#C/C=C(\Sc1nc2ccccc2o1)c1ccccc1	/	29	103	103
Cc1ccc(-c2cc(Cc3ccc(N(C)C)cc3)c(=O)[nH]n2)cc1	6	6	104	96
Cn1c(O)c(N=N)c2ccccc21	-46	18	103	94
Cc1ccc2nc(N=C(N)N)nc(C)c2c1	8	26	101	100
CCn1c(SCC(=O)NCCc2ccccc2)nnc1-c1c[nH]c2ccccc12	-14	5	104	109
CCOC(=O)c1cccc(NS(=O)(=O)c2ccc3c(c2)CCCN3C(C)=O)c1	-19	-4	102	103
CN(C)c1ccc(/C=C2\C(=O)Nc3ccccc32)cc1	-4	7	99&104	102&99
Cc1cc2[nH]c(=O)c3ccccc3n2n1	-16	-30	100	104
O=C1OCc2c1[nH]c(=O)[nH]c2=O	4	89	101	101
C/C(N)=C(/C#N)C(=O)CSc1nc2ccccc2c(=O)n1Cc1ccc(C)cc1	-37	0	108	114
CC(C)c1ccc(/C=N/n2nnnc2Nc2ccccc2)cc1	-73	5	101	99
O=C(NCc1cccs1)C1(c2ccccc2)CC1	8	49	102	99
Cc1nnc(NC(=O)C(C)Sc2nncn2C)s1 (configuration not stated)	-6	6	100	100
CC(C)c1nc(N)n[nH]1	-7	-12	103	102
CCNc1nc(NCC)nc(N(C)N)n1	32*	-17	101	104
O=C(CC(c1ccccc1)c1cc(Cl)ccc1O)N1CCCCC1 (configuration not stated)	-63	-2	103	97
CCOC(=O)C1=CNc2ccccc2S1	-2	-1	101	108
CCc1nnsc1C(=O)Nc1nc2ccc(C)cc2s1	-24	-16	103	108
O=C1C(Oc2ccccc2)C(c2ccc3c(c2)OCO3)N1C1CCCC1 (configuration not stated)	-13	-7	100	101
Cc1c(C(=O)N2CCCC2)oc2ccc(S(=O)(=O)N3CCCC3)cc12	-5	-7	101	101
N#CCN(CC#N)C(=O)C1CC(=O)N(c2ccc(F)cc2)C1 (configuration not stated)	-42	-10	106	101
CCCc1oc(C(=O)O)cc1CN(CC)CC	15	0	101	101
COc1cc(/C=C(/NC(=O)C2CCCCC2)C(=O)N2CC3CC(C2)c2cccc(=O)n2C3)cc(OC)c1OC (configuration not stated)	-30	48	104	102
O=C(C1CCC1)N1CCCC(c2nc3c(nnn3Cc3cccc(Cl)c3)c(=O)[nH]2)C1 (configuration not stated)	30	2	102	99
Cn1cnc2cc(NCc3ccco3)ccc21	-30	i	100	100
O=S(=O)(c1ccc(NC(=S)NCCc2ccccn2)cc1)N1CCOCC1	-10	9	103	104
CC(C)(C)c1ccc(Cn2c(CN3CCOCC3)nc3ccccc3c2=O)cc1	-14	-22	107	106
CNC(=O)CSCc1ccc(C(=O)OC)o1	0	10	102	109
FC(F)(F)c1ccc(N2CCN(C(=S)NC3CC3)CC2)nc1	-5	-14	105	106
Cc1nnnn1CCC(=O)NC(C)c1ccccc1 (configuration not stated)	-13	6	99	105
O=C(COC(=O)c1n[nH]c2ccccc12)NC1CCCCCC1	8	12	105	102
O=C(Cn1c(=O)c(C(F)(F)F)nc2ccccc21)N1CCc2ccccc2C1	-7	7	104	104
CC(C)(C)Nc1nc(C(=O)O)nc(N2CCOCC2)n1	0	-1	100	97
CCC(C)N1CCN(Cc2ccccc2)CC1 (configuration not stated)	-4	-26	102	103
CCOC(=O)Cn1cc(F)c(=O)[nH]c1=O	0	-5	104	110
O=C(OCc1cc(Cl)cc2c1OCOC2)c1ccc(COc2ccccc2)o1	-28	-2	101	99
CCCNC(=O)Nc1ccc(Br)cc1F	-5	-17	103	104
CCC(=S)/C=C1/Sc2ccc(Cl)cc2N1CC	-170	18	101	103
COc1ccccc1C1OC(=O)C[C@H]1C(=O)NN (some centres not stated)	-27	-8	101	95
COC(=O)CSc1nc(N)c(C#N)c(-c2ccccc2)c1C#N	-29	-8	100	103
CCOC(=O)Cc1csc(NC(=O)c2cc3c(=O)n4cccc(C)c4nc3n2C)n1	-1	-4	101	103
O=c1c2nccnc2[nH]c(=S)n1CCc1c[nH]c2ccccc12	-17	34	99	103
CCOc1ccc(S(=O)(=O)NCCO)cc1C	2	-6	103	100
CC(C)(C)OC(=O)NC1CCN(C(=O)NC2CCCCC2)CC1	7	-7	104	103
O=C(NCc1ccco1)NC1CC(=O)N(c2ccccc2)C1 (configuration not stated)	-21	-4	97	100
CSc1cccc(NC(=O)CSc2nnc(Cc3ccccc3)o2)c1	-21	-8	103	104
(listing goes on)
SMILES	MenB inh	MbtI inh	PV pol inh	PV pol inh intensity
CCOc1ccc(N2C(=O)CC(Cc3ccccc3OC)C2=O)cc1 (configuration not stated)	-2	-3	101	103
O=C(O)COc1cccc2nsnc12	-9	/	106	100
CC[n+]1ccccc1/C=C/N(C(C)=O)c1ccccc1	7	4	102	108
N#CCCN(C(=O)c1cncc(Br)c1)c1ccccc1F	/	-11	101	101
c1coc(CNCC2OCc3ccccc3CO2)c1	-4	/	100	97
Cc1cc(OCc2nc(-c3ccc(OCC(N)=O)cc3)no2)cc(C)c1Cl	-10	-12	102	109
CCOC(=O)c1oc2c(CN3CCN(C)CC3)c(O)ccc2c(=O)c1-c1ccc(OC)cc1	-17	-1	103	106
CCCCN(Cc1cc2cccc(C)c2[nH]c1=O)S(=O)(=O)c1ccccc1	-17	-10	101	101
O=C(CN1C(=O)/C(=C/c2ccccc2Cl)SC1=S)Nc1ccccc1C(F)(F)F	-9	7	104	103
Cc1c(OC(=O)c2ccco2)ccc2c(=O)c(-c3nc4ccccc4s3)coc12	3	-15	99	104
COc1ccc2cc(COC(=O)c3ccc(Br)o3)c(Cl)nc2c1	-14	-4	103	105
Cc1ccccc1SCC(=O)O	2	6	101	102

As a working copy, part of the list above:
SMILES	MenB inh	MbtI inh	PV pol inh	PV pol inh intensity
CCOc1ccc(N2C(=O)CC(Cc3ccccc3OC)C2=O)cc1 (configuration not stated)	-2	-3	101	103
O=C(O)COc1cccc2nsnc12	-9	/	106	100
CC[n+]1ccccc1/C=C/N(C(C)=O)c1ccccc1	7	4	102	108

Continuation:
SMILES	MenB inh	MbtI inh	PV pol inh	PV pol inh intensity
CCOC(=O)c1c(NC(=O)c2ccccc2)sc2c1CCC2	/	0	102	102
O=C(c1ccc(NS(=O)(=O)/C=C/c2ccccc2)cc1)N1CCN(c2ncccn2)CC1	-23	6	103	104
CC(Oc1cccc(Br)c1)C(=O)NN (configuration not stated)	-26	5	107	112
CC(=O)Nc1ccc(S(=O)(=O)NC(C)C)cc1	-8	/	103	113
CCOC(=O)c1[nH]c(C)c(C(=O)N2CCC(C(=O)OCC)CC2)c1C	-12	-4	101	103
N#CSCC(=O)c1cccc2ccccc12	3	104	96	97
CC1CCCN(C(=O)c2cccc(Cl)c2)C1 (configuration not stated)	-8	-8	98	103
COCCNC(=O)c1c[nH]n2c(=O)c(Cc3ccc(Cl)cc3)c(C)nc12	-18	124	100	100
CCCCn1c(N)nc2ccccc21	-1	1	101	106
COc1cccc(-n2nnc3c(=O)n(CC(=O)c4ccc(Cl)cc4)cnc32)c1	-5	4	102	101
N/C(=N/S(=O)(=O)c1ccccc1)N1CCCCC1	10	2	98	103
COC(=O)c1cc(C(=O)OC)c(C)nc1C	14	-8	99	105
CCCc1nnc(SCC(=O)N2CCCCC2C)n1CC (configuration not stated)	-76	-8	106	101
CCC(CC)C(=O)OCc1csc(Nc2ccccc2)n1	-23	4	102	103
Cc1ccc(N2CC(=O)N(/N=C/c3ccncc3)CC2=O)cc1	-10	3	105	104
COc1cccc(C(=O)/C=c2\[nH]c(=O)/c(=C\c3cccs3)s2)c1	-34	-9	124	135
CN1CCN(C(=O)Nc2ccc(Cc3ccc(NC(=O)N4CCN(C)CC4)cc3)cc2)CC1	-6	0	103	100
O=C(COC(=O)c1ccccc1F)Nc1ccccc1	/	-4	102	99
CC(NC(=O)NCc1ccccc1)c1ccccc1 (configuration not stated)	-22	-8	107	102
O=C(O)C1CC2C=CC1O2 (configuration not stated)	-3	-10	104	102
COc1ccc(C(=O)CNc2ccccc2Br)cc1	/	-1	104	105
N#Cc1cccc(C(c2nnnn2Cc2ccc(F)cc2)N2CCc3ccccc32)c1 (configuration not stated)	15	2	104	101
Cc1cccc(C)c1NC(=O)C(NC(=O)c1ccc(-n2cnnn2)cc1)c1ccccc1 (configuration not stated)	-3	/	103	102
O=S(=O)(c1ccc(Cl)cc1)n1ccc(-c2ccc(Br)s2)n1	-15	-6	103	93
CC1CC(C)CN(S(=O)(=O)c2ccc(C(=O)Nc3nccs3)cc2)C1 (configuration not stated)	-32	-14	104	94
CN(C)/C=C/C(=O)c1ccc2c(c1)CCC(C)(C)O2	0	3	101	104
CCc1cccc2c(/C=N/O)c[nH]c12	-20	6	95	91
